HCMV UL50-53 inh: disrupts HCMV UL50-UL53 complex binding | 0.15% of 190,000 active | HTRF UL50-UL53 interaction, normalized percent inhibition | inhibition, % (no concentration beside the values);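 active = both replicates at 50% or more, plus weaker picks with an unusually low signal ratio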;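 also: stock transfer was 100 nL into about 20 µL; 0% = negative control wells and 100% = wells with untagged competitor protein; inactives centre near -12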
GIV-Gai inh: blocks GIV peptide binding to rat Galpha-i3. P08753. Galpha-i3/FITC-GIV peptide fluorescence polarization, 90 min; stronger effect = lower value; scaled: aluminum fluoride 0%, vehicle 100%. percent of control (FP), % (no concentration beside the values). 0.42% of 210,000 active. AID 1224905;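 active = replicate mean at 85% of control or lower, very high polarization wells dropped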;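 also: wells of about 15 µL received 100 nL stock; the first replicate is given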
Target sequence (P08753 whole entry, looked up): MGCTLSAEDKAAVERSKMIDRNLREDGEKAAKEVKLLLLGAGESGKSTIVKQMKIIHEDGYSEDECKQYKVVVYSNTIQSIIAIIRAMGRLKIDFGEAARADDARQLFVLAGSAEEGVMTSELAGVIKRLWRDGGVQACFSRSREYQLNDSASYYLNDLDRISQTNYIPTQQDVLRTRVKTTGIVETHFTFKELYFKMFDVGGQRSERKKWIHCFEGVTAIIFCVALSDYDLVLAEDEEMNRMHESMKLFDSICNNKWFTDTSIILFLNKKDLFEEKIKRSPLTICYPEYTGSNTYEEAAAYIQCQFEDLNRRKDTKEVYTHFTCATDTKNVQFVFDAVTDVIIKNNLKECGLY
Sa growth inh: blocks Staphylococcus aureus growth | S. aureus RN4220 growth, OD600, 20 h, 42 °C; stronger effect = lower value | relative growth, % (test concentration not listed) | 0.53% of 170,000 active;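 active = growth at 42 °C up to 50% and 20 or more points under that at 30 °C, or under 10% at both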;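 also: 300 nL library stock went into each well; scaled to the means of positive and negative controls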
Sa growth inh second temp: recorded beside Sa growth inh, whose call it bears; relative growth, %; measured here: growth at 30 °C;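 optical density after 20 h as mean of two plates; 100% = untreated growth and lower means inhibition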
Active calls of the source: *; x = no result given; & = joins results of further samples. Random draw from the library; any-hit rate near 0.8%.

SMILES	HCMV UL50-53 inh	GIV-Gai inh	Sa growth inh	Sa growth inh second temp
COc1ccc(C2=Nc3ccccc3N(Cc3ccc(C)cc3C)C(=O)C2)cc1	-26	100	x	x
CCC1(C)CC(CC(=O)OC(C)CN(C)C)(c2ccccc2)CCO1 (stereo unspecified)	-11	x	104	85
COc1ccc(-c2noc(N3CCC(C(=O)Nc4ccc(F)cc4Cl)CC3)n2)cc1	x	101	94	93
CSc1cccc(NC(=O)Cn2c3ncccc3c(=O)n2-c2ccc(C)cc2)c1	x	104	112	99
CN1C(=O)/C(=C\c2ccc(C(=O)N3CCC4(CC3)OCCO4)cc2)SC1=S	-43	104	98	89
Cc1oc(-c2ccccc2)nc1C(=O)Nc1ccccc1C(=O)Nc1ccc2c(c1)OCO2	5	x	106	103
O=C(Nc1ccccc1)Nc1ccc(Oc2cccnc2)nc1	-22	105	87	72
COc1ccc(Cn2ccc3nc(C)c(C(=O)Nc4ccc(OC)cc4)cc3c2=O)cc1	-23	102&100	92	73
CC(C)(C)C(=O)N1CCCC(C(=O)Nc2sc3c(c2C(N)=O)CCCC3)C1 (stereo unspecified)	-18	103	x	x
COc1ccc(-c2cn3c(n2)sc2cc(C(=O)NCC(C)c4ccccc4)ccc23)cc1 (stereo unspecified)	x	111	110	84
Cc1ccc(-c2nc(CCN(C)S(=O)(=O)c3c(C)noc3C)no2)cc1	6	98	x	x
O=C(Cn1c2c(c(-c3ccccc3Cl)cc1=O)CCC2)NC1CC1	x	105	105	87
CS(C)=C1C(=O)NC(=O)N(c2ccccc2F)C1=O	-10	x	90	80
CSC1=N/C(=C\c2ccc(Cl)cc2)C(=O)N1CCc1c[nH]c2ccccc12	-9	109	98	87
Cc1ccc(NC(=O)NC(C)c2c(-n3cccc3)sc(C)c2C)cc1 (stereo unspecified)	-3	99	107	87
COc1ccc(CCNC(=O)CSc2n[nH]c(-c3ccccc3Cl)n2)cc1OC	x	103	96	85
O=C(Nc1ccc2oc(-c3ccc(Br)cc3)nc2c1)c1ccc([N+](=O)[O-])cc1	-1	101	x	x
N#Cc1cc2sc3nc4ccccc4n3c2cc1C#N	-6	99	100	80
Nc1nonc1NC(=O)CSc1ncccc1C(=O)O	-11	x	122	80
CC1CCC(C(C)C)C(=O)/C1=C/c1ccc(N)cc1 (stereo unspecified)	x	100	71	50
COc1ccc(S(=O)(=O)N(CCc2ccccc2)CC(=O)Nc2cc(C)ccc2C)cc1	-42	102	110	88
COc1cccc2cc(C(=O)Nc3cccc(Cn4cccn4)c3)c(=O)oc12	-33	110	120	101
CC(=O)Nc1ccc(C(=O)OCC(=O)N2CC3(C)CC2CC(C)(C)C3)cc1 (stereo unspecified)	6	x	107	97
O=C(CSc1nnc(COc2ccccc2Cl)o1)NC(=O)NC1CCCC1	-16	x	89	87
CCC1Cn2c(C(=O)NCCCN3CCCC3)cc3cccc(c32)O1 (stereo unspecified)	-12	102	x	x

Carrying on.
SMILES	HCMV UL50-53 inh	GIV-Gai inh	Sa growth inh	Sa growth inh second temp
COc1ccc(CNC(=O)c2cccc(N3CCCS3(=O)=O)c2)cc1	x	106	76	93
Cn1c(C(=O)NC2CCCC2)cc2c(=O)oc3ccccc3c21	9	97	x	x
CC1(c2ccccc2)Nc2ccccc2-c2nc3ccccc3n21 (stereo unspecified)	x	110	93	68
COc1ccccc1OCc1nnc(SCCN2CCOCC2)o1	-16	100	97	95
O=C(/C=C/c1ccccc1)Nc1nnc(-c2ccco2)o1	-16	109	90	77
CC(C)(C)CC(=O)NCc1ccc(S(N)(=O)=O)cc1	-14	x	96	86
CC1CCc2[nH]c3ccc(C(=O)O)cc3c2C1 (stereo unspecified)	x	105	111	86
O=C(CSc1ncccc1C(=O)OCCN1C(=O)c2ccccc2C1=O)Nc1ccc2c(c1)OCO2	-9	x	118	96
COc1ccc(C)cc1NC(=O)CN(c1ccccc1)S(=O)(=O)N(C)C	-35	104	116	86
COCCOC(=O)C1=C(C)NC(C)=C(C(=O)OC/C=C/c2ccccc2)C1c1cccc([N+](=O)[O-])c1 (stereo unspecified)	-42&-2&-25	99&107	89	83
CCC[N+]1(C)CCC2C(C1)c1ccccc1N2Cc1ccccc1 (stereo unspecified)	x	106	110	76
CCOCCCNC(=O)CNC(=O)N1CCSc2nc(C)cc(C)c21	-7	105	x	x
C(=N\n1cnnc1)/c1ccccc1	-30	x	111	91
O=C(Nc1cnn(C23CC4CC(CC(C4)C2)C3)c1)c1cc(-c2ccccc2)on1	2	98	101	72
O=C(O)CCc1nc(=S)[nH][nH]1	-8	x	108	82
O=C(Nn1c(-c2ccccc2F)nc2ccccc2c1=O)c1cc2ccccc2oc1=O	-3	99	x	x
CC(C)CC1(C)NC(=O)N(CC(=O)c2ccc(Cl)s2)C1=O (stereo unspecified)	-17	x	91	91
O=C(OCc1ccc2ccccc2c1)c1ccco1	-13	101	114	104
Cc1ccccc1OCC(=O)Nc1ccc2oc(-c3ccc(F)cc3)nc2c1	-34	111	102	103
O=C(c1cc2c(s1)-c1ccccc1OC2)N(Cc1ccco1)C1CCCCC1	-7	101	86	78
O=c1cc(CCl)c2cc3c(cc2o1)CCC3	-9	x	121	86
Cc1cccn2c(=O)cc(CSc3nnc(NC(=O)C(C)C)s3)nc12	x	107&104	93	94
CC(C)Sc1nc2ccccc2n1CN1CCN(c2ccccn2)CC1	-55	x	106	97
Cc1cccc(C(=O)Nc2ccc(N3CCC(N4CCCCC4)CC3)c(C(=O)O)c2)c1	x	98	93	88
CN=C1SC(CC(=O)Nc2ccccc2F)C(=O)N1/N=C/c1ccc(O)c(OC)c1 (stereo unspecified)	-14	x	97	88

Following part.
SMILES	HCMV UL50-53 inh	GIV-Gai inh	Sa growth inh	Sa growth inh second temp
COCCCNC(=O)c1ccc2c(c1)N(Cc1ccccc1)C(=O)c1ccccc1S2	x	97	123	89
CCCCNC(=O)CC1N=C2c3ccccc3N=C(SCC(=O)NCc3ccccc3Cl)N2C1=O (stereo unspecified)	-18	103	92	82
Cc1ccc(NC(=O)c2ccc3c(O)c(S(=O)(=O)c4ccc(Cl)cc4)c(=O)[nH]c3c2)cc1	x	105	106	101
CN(Cc1ccc(Cl)c(Cl)c1)c1ccc(S(N)(=O)=O)cn1	-20	x	81	86
CCOC(=O)c1cc2n(n1)CC(C)(C(=O)NC1CCC(C)CC1)N(c1ccc3c(c1)OCO3)C2=O (stereo unspecified)	-1	103	x	x
COc1ccc(NC(=O)Nc2nnc(COc3ccccc3F)s2)cc1	19	101	x	x
O=C(COC(=O)c1n[nH]c2ccccc12)NCC1CCCCC1	15	x	91	95
Cc1ccc(Cl)cc1N1CCN(C2(c3ccccc3)C(=O)c3ccccc3C2=O)CC1	9	107	107	99
CCOC(=O)c1cn(CC2CC2)c2cc(F)c(F)cc2c1=O	13	99	96	82
CCc1ccc(NC(=O)c2cc3c(s2)-c2ccccc2S(=O)(=O)C3)cc1	x	106	116	86
CCN(CC)S(=O)(=O)c1ccc(NC(=O)c2ccccc2)cc1	-41	98	93	71
COc1ccccc1NC(=O)CSCc1nc2ccccc2c(=O)n1-c1ccccc1Cl	6	112	x	x
O=c1c2cnn(CCO)c2ncn1Cc1cccc2ccccc12	16	108	115	102
COc1cccc(C(=O)Nc2ccc(Cl)c(-c3nc4ccccc4[nH]3)c2)c1	8	102	111	78
CCCCN(C)C(=O)c1[nH]c2ccccc2c1Sc1ccc(Cl)cc1	x	98	70	59
CC1(C(=O)O)CC1(C)C(=O)O (stereo unspecified)	-10	106	106	79
CC1CCCC(C)N1C(=O)c1cccc2c1-c1ccccc1C2=O (stereo unspecified)	-84	102	98	94
N#Cc1cnoc1N1CCCc2ccccc21	6	x	94	93
COc1cccc(NC(=O)C(CCSC)NC(=O)C2CCC(C)CC2)c1 (stereo unspecified)	-5	106	104	102
CC(=O)Oc1ccc(-c2nc3ccccc3s2)cc1	-5	102	48	54
Cn1cnc(S(=O)(=O)N2CCCC(C(=O)Nc3ccc(F)cc3Cl)C2)c1 (stereo unspecified)	x	98	90	91
Cc1nn(-c2ccccc2)c2[nH]c(=O)cc(CCl)c12	3	93	130	83
COc1ccccc1NC(=O)CN1C(=O)C2(SCC(=O)N2c2ccc(C)c(C)c2)c2ccccc21 (stereo unspecified)	x	101	108	90
C=CCn1c(C)cc(C(=O)COC(=O)c2cncc(Br)c2)c1C	-28	x	84	94
O=C(O)C1NCCc2ccccc21 (stereo unspecified)	-2	105	81	79

(more compounds)
SMILES	HCMV UL50-53 inh	GIV-Gai inh	Sa growth inh	Sa growth inh second temp
Cc1cccc(NC(=O)CCS(=O)(=O)c2cc(Br)cc3c2N(C(=O)C2CC2)CC3)c1C	-7	101	100	84
O=S(=O)(Cc1ccccc1)NCc1cccn1Cc1ccccc1	-11	111	x	x
CCCCNC(=O)C1CCCN(S(=O)(=O)CCC)C1 (stereo unspecified)	x	97	104	93
CCN(CC)CCNc1cc(C)nc2c(C)c(-c3ccc(OC)c(OC)c3)nn12	-17	106	x	x
O=C1/C(=C/c2cccc(F)c2)CS/C1=C\c1cccc(F)c1	x	106	109	84
CCOc1ccc(NC(=O)Cc2ccc(-n3c(C)nc4cccnc43)cc2)cc1	x	104	89	112
Cc1ccc(N=C2NC(=O)C(Cc3ccccc3Cl)S2)cc1 (stereo unspecified)	-26	99	x	x
O=C(Nc1ccccc1)OCCOc1cc(C(F)(F)F)ccn1	-6	99	101	95
COc1ccccc1N1CCN(C(=O)c2ccc(Cl)cc2)CC1	-19	98	93	80
N#Cc1ccc(NC(=O)CCCc2ccccc2)cc1	1	102	87	98
CCn1c2ccccc2c2cc(C#N)ccc21	0	103	44*	67*
COc1ccc(N=Cc2ccc(N(C)CCC#N)cc2)cc1	-30	102	100	90
CCOc1cccc(CNCCCSc2nnnn2C)c1	-25	102	104	88
O=C(NCc1ccncc1)C1CCN(C(=O)c2cccc(Cl)c2)CC1	-9	105	98	71
Cc1cccc(C(=O)Nc2ccccc2SCc2cc(=O)c3cccc(C)c3[nH]2)c1	x	105	92	82
Cc1onc(-c2ccc(F)cc2F)c1C(=O)Nc1cccc(C(F)(F)F)c1	x	104	85	92
N#Cc1ccccc1Cn1c(=O)c2c(ncn2Cc2ccccc2)n(Cc2ccccc2)c1=O	-7	x	67	85
CSc1nnc(NC(=O)c2cc(=O)c3cc(C)c(C)cc3o2)s1	-25	101	106	82
O=c1cc(N2CCOCC2)[nH]c(=O)n1C1CCCCC1	4	102	95	84
c1cnc(Oc2ccc(-n3cccc3)cc2)nc1	-18	101	x	x
O=S(=O)(CCS(=O)(=O)c1ccc(Cl)cc1)c1ccccc1	6	109	99	95
C=C(C)C(=O)NC1=NN(c2ccccc2)C(=O)C1	-4	95	110	54
O=C(CC1CCCC1)Nc1nc2ccccc2[nH]1	-28	x	112	86
CC(C)Cn1cnc2c(N)nc3ccccc3c21	-38	110	89	91
CCn1ccc2cc(S(=O)(=O)N3CCCC(C(=O)NCCC4=CCCCC4)C3)ccc21 (stereo unspecified)	-19	106	x	x

(cont.)
SMILES	HCMV UL50-53 inh	GIV-Gai inh	Sa growth inh	Sa growth inh second temp
CCOC(=O)c1cc(-c2ccccc2)n(-c2ccc(N)cc2)c1C	2	109	106	101
CC1CCN(S(=O)(=O)c2ccc(-c3noc(-c4cnccn4)n3)cc2)CC1	-21	111	x	x
CCOc1ccc(NC2=NC(C(=O)Nc3ccccc3)CC(=O)N2)cc1 (stereo unspecified)	-14	111	95	95
CN1/C(=C\C(=O)CSc2nncn2-c2ccccc2)C(C)(C)c2ccccc21	-14	x	109	92
C=CCn1c(N)c(C(=O)NCc2ccccc2)sc1=S	x	101	97	70
CC1CCc2c(sc(NC(=O)CSc3nnc4n3CCCCC4)c2C(N)=O)C1 (stereo unspecified)	-8	x	94	92
Cn1c(-c2nnc(SCC(=O)Nc3ccc4c(c3)OCO4)o2)cc2ccccc21	-14	101	x	x
Cc1ccc(-n2nc3c(=O)n(C(C)C(=O)NCc4ccc(OC(C)C)cc4)nc(C)c3c2C)cc1 (stereo unspecified)	x	100	93	94
